High-throughput results deposited in PubChem BioAssay by several laboratories.
CBX7 inh: CBX7 inhibition, primary AlphaScreen; O95931; AlphaScreen His6-CBX7 / biotin-H3K27me3 peptide binding; stronger effect = lower value; normalised signal (fraction of DMSO) (concentration not given with the values); 66,000 compounds, 1.1% hits; in the data active = normalised signal below about 0.5;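 note: 100 nL library stock added to about 20 µL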
Target sequence (O95931 whole entry, looked up): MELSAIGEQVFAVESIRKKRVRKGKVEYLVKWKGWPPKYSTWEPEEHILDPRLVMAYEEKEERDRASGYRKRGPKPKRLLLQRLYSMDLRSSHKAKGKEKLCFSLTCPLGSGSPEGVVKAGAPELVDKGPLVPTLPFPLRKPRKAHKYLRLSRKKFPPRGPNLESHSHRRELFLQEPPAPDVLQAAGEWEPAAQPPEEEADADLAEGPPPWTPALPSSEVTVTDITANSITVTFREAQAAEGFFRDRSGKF
CBX7 inh z-score: also measured in CBX7 inh; calls as there; z-score; measured here: z-score of CBX7 signal; some inactives read as strong as hits; reference of the scale not given here;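 same signal on another scale; lower means less binding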
* = called active by the depositor; & = joins results of further samples. This is a subset (hit frequency here may not be typical).

Structure	CBX7 inh	CBX7 inh z-score
O=C(NCCC1=CCCCC1)c1ccc2c(c1)N(Cc1ccccc1Cl)C(=O)CS2	0.962	-0.81
Cc1ccc(C(=O)Nc2c(C(=O)N3CCN(C)CC3)cnn2-c2ccccc2)cc1	0.932	-1.08
Cc1ccc2nc(-c3ccc(N4CCOCC4)cc3)c(Nc3ccc4c(c3)OCO4)n2c1	0.81	-3.12
COc1ccccc1NC(=O)Nc1nnc(N2CC(C)CC(C)C2)s1 (configuration not stated)	0.993	-0.029
COc1ccc(-n2cnc3cc(NCc4ccccc4OC)ccc32)cc1	0.314*	-3.21*
O=C(NCCCN1CCN(C2CCCCC2)CC1)c1csc2c1CCCC2	1.01	0.337
CCOc1ccccc1NC(=O)c1ccc(CNc2c(N3CCOCC3)c(=O)c2=O)cc1	1.2	1.15
Cc1ccc(NCC(O)Cn2c3c(c4cc(C)ccc42)CCCC3)cc1 (configuration not stated)	0.603	-4.3
COc1ccc(NC(=O)CSc2nc(-c3cccc(F)c3)[nH]c2-c2ccccc2)cc1	0.839	-7.65
Cc1noc(C)c1CSc1ccc2ccccc2n1	0.958	-1.5
CCc1cccc(C)c1Nc1c(-c2ccc(F)cc2)nc2sccn12	0.882	-4.8
O=C(CC1Oc2ccccc2NC1=O)NCc1ccccc1Cl (configuration not stated)	1.01	0.342
COc1ccc(NC(=O)CCCOc2cc(=O)n(C)c3ccccc23)cc1Cl	0.844	-2.56
COc1ccccc1C(=O)N1CC(=O)Nc2ccc(Br)cc2C1c1ccccc1 (configuration not stated)	0.916	-2.13
COc1ccc2c(c1)c(C(=O)CNc1nc(C)cs1)c(C)n2C	1.14	1.57
CCOC(=O)c1ccc(NC(=O)Cn2nc(Cc3ccncc3)c3ccccc3c2=O)cc1	1.06	0.614
COc1ccc(NC(=O)Nc2nnc(Cc3ccc(F)cc3)s2)cc1	0.97	-0.742
O=C(Nc1c2c(nc3c1CCC3)CCCC2)c1ccncc1	1.02	0.278
CCOc1ccc2nc(N3CCCC(C(=O)NC)C3)sc2c1 (configuration not stated)	0.974	-0.699
CCOC(=O)c1cnc2ccc(OCC)cc2c1N1CCCCCC1	1.11	1.28
Cc1ccc(-c2noc(CCC(=O)NCCCOC(C)C)n2)cc1	0.936	-1.23
O=C(Nc1c2c(nn1-c1cccc(Cl)c1)CS(=O)(=O)C2)c1cccc(C(F)(F)F)c1	0.912	-0.581
CCCCOc1ccc(C(=O)Nc2nc3ccc(OC)cc3s2)cc1	1.32	3.07
CN1CCN(C(=O)CN2C(=O)COc3ccc(S(=O)(=O)N4CCOCC4)cc32)CC1	1.03	0.717
Cc1onc(-c2ccccc2Cl)c1C(=O)Nc1ccc(-c2nc3ccccc3[nH]2)cc1	0.841	-2.19

Looked up above.
COc1ccc(-n2cnc3cc(NCc4ccccc4OC)ccc32)cc1 in CBX7 inh z-score is listed with -3.21*
COc1ccc(NC(=O)Nc2nnc(Cc3ccc(F)cc3)s2)cc1 in CBX7 inh z-score is listed with -0.742

New compounds follow
Structure	CBX7 inh	CBX7 inh z-score
Cc1cccc(C(=O)N2CC(=O)Nc3ccc(Br)cc3C2c2ccccc2)c1 (configuration not stated)	0.837	-4.37
COc1ccc(NC(=O)CCc2c(C)nc3c(-c4ccc(F)cc4)c(C)nn3c2C)c(OC)c1	1.08	1.84
Cc1cccc(-c2nc(CSCC(=O)NC3CCCCCC3)c(C)o2)c1	0.93	-1.31
Cc1nc2cc(-c3cccc(F)c3)nn2c(C)c1CCC(=O)NCCc1ccccc1	0.883	-1.92
COc1ccc(Cn2c(=O)c3cccnc3n(CC(N)=O)c2=O)cc1	0.959	-0.727
COc1ccc(CNC(=O)CN2C(=O)CSc3ccccc32)c(OC)c1	0.79	-3.63
Cc1ccc(-c2noc(CN3C(C)CCCC3C)n2)cc1 (configuration not stated)	0.965	-0.42
O=C(NC1CC1)c1cc(-c2cccnc2)nc2ccccc12	1.06	0.69
CCOC(CCNC(=O)CCC(=O)Nc1ccc2nc(N3CCC(C)CC3)cc(C)c2c1)OCC	1.03	1.26
COc1ccc(NC(=O)c2sc3ncn(CC(=O)N4CCC(C)CC4)c(=O)c3c2C)cc1Cl	1.09	0.97
CCCCCn1c(=O)[nH]c2cc(C(=O)N3CCN(c4ccccc4)CC3)ccc2c1=O	0.973	-0.514
CCN(C(=O)Cc1c(C(=O)O)[nH]c2ccccc12)c1cccc(Cl)c1	1.04	1.27
CC1CCCC(NC(=O)CN2C(=O)COc3ccc(S(=O)(=O)N4CCCCCC4)cc32)C1C (configuration not stated)	0.985	-0.5
Cc1nnc2ccc(NCCc3ccc(S(N)(=O)=O)cc3)nn12	0.988	-0.332
Cc1ccc(N(CC(O)CN2CCCCC2)S(=O)(=O)c2ccc(C)cc2)cc1 (configuration not stated)	1.14	2.73
O=c1[nH]c2ccccc2cc1CNc1ccc(Cl)cc1	0.87	-2.09
Clc1ccc(CN2C3=NCCCN3c3ccccc32)cc1	1.07	2.19
COc1cccc(N2C(=O)N(c3cccc(Cl)c3)C3CS(=O)(=O)CC32)c1 (configuration not stated)	1.04	1.32
COc1ccc(CNC(=O)c2ccc3c(c2)N=C(C)c2cc(C)ccc2S3)cc1	0.662	-0.336
CCC1CCCCN1CCCNC(=O)c1cc(Nc2ccccc2OC)nc2ccccc12 (configuration not stated)	1.11	0.106
CCOCCCNC(=O)c1c[nH]c2ccc(S(=O)(=O)Nc3ccc(C(C)C)cc3)cc2c1=O	1.07	1.25
Cc1ccc(Cn2ccc(NC(=O)c3cc(C)on3)n2)cc1	0.947	-0.0625
CCc1cccc(NS(=O)(=O)c2cnc[nH]2)c1	0.908	-1.19
Cc1ccc(C)c(NC(=O)C2CCN(S(=O)(=O)c3cccnc3)CC2)c1	1.03	0.881
COC(=O)c1ccc2c(=O)n(Cc3ccc4c(c3)OCO4)c(SCc3cccnc3)nc2c1	1	0.0337
N#Cc1c(C(F)(F)F)cc(-c2ccccc2)nc1SCC1COc2ccccc2O1 (configuration not stated)	1.12	0.144
Cc1ccc(-c2nc(CS(=O)(=O)CC(=O)NCCc3ccc(Cl)cc3)c(C)o2)cc1	0.956	-0.0909
Cc1cc(Sc2ccc(Cl)cc2)nc2ccccc12	1.27	2.94
O=C1CC2c3ccccc3C1C1C(=O)N(c3cccc(C(F)(F)F)c3)C(=O)C21 (configuration not stated)	1.07	1.1
O=C(Nc1ccccc1-c1nc2ccccc2[nH]1)c1cc(=O)c2ccccc2o1	1.01	0.174
COc1ccc(-c2nc3cccc(C)n3c2Nc2ccc(C)cc2)cc1	0.645	-13.3
CC(NC(=O)C(=O)NCc1cccnc1)C(c1cccs1)N1CCN(c2ccccc2)CC1 (configuration not stated)	0.887	-1.2
COc1ccc(C2=NOC(C(=O)NCCCN3CCOCC3)C2)cc1 (configuration not stated)	0.992	-0.109
CCC(CC)C(=O)NCCc1cc2ccc(C)c(C)c2[nH]c1=O	1.07	1.39
Cc1cc(C)c(NC(=O)C2CCCN(S(=O)(=O)c3cccc4cccnc34)C2)c(C)c1 (configuration not stated)	1.04	1.34
CC(C)CCn1c(-c2cccs2)nc2ccccc21	0.875	-1.35
O=C(Nc1cnn(Cc2ccc(F)cc2)c1)c1cc(-c2cccc(Cl)c2)on1	0.996	-0.114
COc1cc2ccc3c(CCN(C)C)cc(OC)c(OC)c3c2cc1OC	1.01	0.497
CCCc1cc(C(=O)Nc2ccc(C)c(C)c2)no1	1.13	4.11
O=C(NC1CCCC1)c1ccc2c(c1)ncn2C1CCCC1	0.949	-1.53
COc1ccc(S(=O)(=O)N2CCC(C(=O)Nc3ccc(Oc4ccccc4)cc3)CC2)cc1	1.05	2.18
CCCSCCCNC(=O)C1CCN(C(=O)c2cnn(-c3ccccc3)c2-n2cccc2)CC1	1.13	1.01
COc1ccc(NC(=O)c2cnc(Nc3ccccc3OC)c3ccccc23)c(OC)c1	1.12	2.12
CCC(=O)N1CCc2cc(S(=O)(=O)N(CC)c3cccc(C)c3)ccc21	0.808	-0.776
COc1ccc(C(O)c2nc3ccccc3n2C(C)C)cc1 (configuration not stated)	1.07&1.02	1.79&0.0866
COc1ccc(C2C(Oc3ccccc3C)C(=O)N2c2cccc(C(F)(F)F)c2)cc1OC (configuration not stated)	1	0.0247
Cc1cccc(N2CCN(C(=O)C3CCCN(C(=O)c4cc5sccc5n4C)C3)CC2C)c1 (configuration not stated)	0.606	-11.3
COc1ccc(-n2cc(C(=O)Nc3ccc(F)cc3F)c3ccccc3c2=O)cc1	0.919	-1.12
Cc1ccccc1Nc1c(-c2c[nH]c3ccccc23)nc2c(C)cccn12	0.802	-7.43
CC1CCCCN1CCNC(=O)Cn1nc(-c2ccccc2)ccc1=O (configuration not stated)	1.09	1.32

2 of the compounds above, with each value named.
> Cc1ccc(-c2nc(CS(=O)(=O)CC(=O)NCCc3ccc(Cl)cc3)c(C)o2)cc1
  CBX7 inh: 0.956	CBX7 inh z-score: -0.0909

> Cc1cc(Sc2ccc(Cl)cc2)nc2ccccc12
  CBX7 inh: 1.27	CBX7 inh z-score: 2.94

Other records:
Structure	CBX7 inh	CBX7 inh z-score
Cc1ccc(C)c2[nH]c(=O)c(CCNC(=O)c3cccc(Cl)c3)cc12	0.974	-0.664
OC(COc1ccc(F)cc1)CN1CCN(c2cccc(Cl)c2)CC1 (configuration not stated)	1.02	0.578
c1ccc(CSc2nc3ccccc3o2)cc1	1.25	2.87
COc1ccc(CCNC(=O)C2(C)CCC(=O)N2Cc2ccc(C)cc2)cc1OC (configuration not stated)	1.05	0.843
Cc1cc(C)n(-c2nc3ccccc3nc2Nc2ccc3c(c2)OCO3)n1	1.55	10.9
CCC(=O)Nc1nonc1-c1nc2ccccc2n1Cc1cccc2ccccc12	1.03	1.66
O=C(CN1N=C(c2ccc(Cl)cc2)CCC1=O)N1CCOCC1	1.02	0.326
CC(c1ccccc1)C(Cc1nc2ccccc2[nH]1)c1nc2ccccc2[nH]1 (configuration not stated)	0.857	-0.168
Cc1ccc(CCN2CC(C(=O)NCc3cccnc3)CC2=O)cc1 (configuration not stated)	1.05	2.26
Nc1cccc(-c2cc(C(=O)O)c3ccccc3n2)c1	0.951	-0.939
COc1ccc(-c2nn(C)c(=O)c3ccccc23)cc1NC(=O)COc1ccc(C)cc1	0.848	-5.41
Cc1ccc(Cn2nnc3c(=O)n(Cc4ccc(Br)cc4)cnc32)cc1	0.918	-1.35
CCN1CCCC1CNC(=O)CCC(=O)Nc1ccc2nc(N3CCCCC3)cc(C)c2c1 (configuration not stated)	0.983	-0.725
Cc1nc2sc(C(c3cccs3)N3CCC(C(N)=O)CC3)c(O)n2n1 (configuration not stated)	1.03	1.26
COc1ccc(-c2cc(-c3ccc(C)cc3)nc(N3CCN(C)CC3)n2)cc1	1.69	1.41
CSCCC(NC(=O)c1ccccc1)c1noc(-c2ccc(C)cc2)n1 (configuration not stated)	1.33	1.91
COc1ccc(NC(=O)CNC(=O)Cn2cnc3sc(C)c(C)c3c2=O)cc1Cl	0.974	-0.784
CCOc1ccccc1CNc1sc2c(c1C(=O)Nc1ccc(OC)cc1)CCC2	0.808	-3.78
COc1ccc(C(=O)Nc2c(C(=O)c3ccc(Br)cc3)oc3ccccc23)cc1	1.09	0.4
Cc1ccc(-c2nc(CS(=O)(=O)CC(=O)Nc3ccc(Br)cc3F)c(C)o2)cc1	1.04	0.0871
CC(C)CCNC(=O)Cn1ncc2ccsc2c1=O	1.01	0.301
CC(NC(=O)CC1Nc2ccccc2NC1=O)c1ccccc1 (configuration not stated)	1.18	1.43
Cc1cccn2c(Nc3ccc4c(c3)OCCO4)c(-c3ccc(Cl)cc3)nc12	0.479*	-4.18*
CCC(=O)N1CCc2cc(S(=O)(=O)NC(CC(C)C)C(=O)NCc3ccccc3Cl)ccc21 (configuration not stated)	1.07	2.85
CCOC(=O)c1cnc2cc(Cl)c(OC)cc2c1Nc1ccc(C(C)C)cc1	1.02	0.596
COc1cc2cc(=O)n(Cc3ccccc3)c(C)c2cc1OC	0.827	-0.236
CCCN1Cc2cccc(C(=O)Nc3ccc4c(c3)OCCO4)c2C1=O	0.986	-0.217
COc1ccc(CC(=O)NCCc2cc3ccc(C)c(C)c3[nH]c2=O)cc1	1.14	0.883

Whole records, quoted from the list. Values in the order: CBX7 inh | CBX7 inh z-score
`COc1ccc(-n2cnc3cc(NCc4ccccc4OC)ccc32)cc1` as listed: 0.314* | -3.21*
`Cc1ccc2nc(-c3ccc(N4CCOCC4)cc3)c(Nc3ccc4c(c3)OCO4)n2c1` as listed: 0.81 | -3.12

Pulled one by one from the list above:
Structure	CBX7 inh	CBX7 inh z-score
COc1ccc(-c2nn(C)c(=O)c3ccccc23)cc1NC(=O)COc1ccc(C)cc1	0.848	-5.41
CCC(=O)N1CCc2cc(S(=O)(=O)NC(CC(C)C)C(=O)NCc3ccccc3Cl)ccc21 (configuration not stated)	1.07	2.85
Cc1ccc(C)c2[nH]c(=O)c(CCNC(=O)c3cccc(Cl)c3)cc12	0.974	-0.664
Cc1cccn2c(Nc3ccc4c(c3)OCCO4)c(-c3ccc(Cl)cc3)nc12	0.479*	-4.18*
CSCCC(NC(=O)c1ccccc1)c1noc(-c2ccc(C)cc2)n1 (configuration not stated)	1.33	1.91
